Screens: PubChem BioAssay, National Center for Advancing Translational Sciences (NCATS)
PINK1 modulator: changes PINK1 expression; PINK1 immunofluorescence, high-content cytometry, 24 h; Potency, µM (series often up to 76.6 µM), inactives show at the top dose activation (PINK1 increase), actives largely listed as activators; actives 0.2% (n = 410,000); AID 624263; active = well fitted activation curve with a large enough effect; inconclusive = small, poorly fitted or top-dose-only effect; inactive = flat fitted curve, though single readings scatter; cell line not stated here;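 further: potency means the concentration at half of the fitted maximal effect; % of control where 0% means no effect; nearly all actives have a fitted effect of over 65% in size; a mitochondrial uncoupler was the plate control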
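Fluorescence from anti-PINK1 antibody, together with nuclear and cell stains, was scanned on a laser-scanning cytometer. Before staining, stable-line cells were incubated 24 hours with compounds at 5 concentrations; primary antibody 12 h at 10 degrees C.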
CtBP-E1A blk: CtBP/E1A binding inhibition | AID 651724 | actives 0.49% (n = 340,000) | activity change, % (test concentration not listed) | AlphaScreen GST-E1A/His-CtBP binding, 1536-well; stronger effect = lower value; control for the full effect not named in the record; in the data active means activity change below about -65%; inconclusive means about -30% to -65%; inactive means above about -30%; further: on the % scale 0 is the no-effect control and ±100 the full control effect; compound concentration not given in the record
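Steps: dispense buffer (Tris pH 8.0, NaCl 300 mM, TCEP 1 mM, BSA, Tween 20); add 5X protein mix (GST-E1A, His-CtBP, 125 nM each); pin 23 nL compound; 2 h at 37 °C, dark; add 5X beads (50 ug/mL); 1 h; read.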
D2 potentiator: potentiates the human D2 dopamine receptor allosterically. P14416. DiscoveRx D2 beta-arrestin cells, luminescence, 90 min; 100% = 57 uM dopamine signal. potentiation, % (test concentration not listed). actives 0.23% (n = 360,000). AID 624464; active = potentiation of 50% or more; inconclusive = 30% to 50%; inactive = 30% or less;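 further: compound concentration not given in the record; tested on top of an EC20 dose of dopamine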
Target sequence (P14416 whole entry, looked up): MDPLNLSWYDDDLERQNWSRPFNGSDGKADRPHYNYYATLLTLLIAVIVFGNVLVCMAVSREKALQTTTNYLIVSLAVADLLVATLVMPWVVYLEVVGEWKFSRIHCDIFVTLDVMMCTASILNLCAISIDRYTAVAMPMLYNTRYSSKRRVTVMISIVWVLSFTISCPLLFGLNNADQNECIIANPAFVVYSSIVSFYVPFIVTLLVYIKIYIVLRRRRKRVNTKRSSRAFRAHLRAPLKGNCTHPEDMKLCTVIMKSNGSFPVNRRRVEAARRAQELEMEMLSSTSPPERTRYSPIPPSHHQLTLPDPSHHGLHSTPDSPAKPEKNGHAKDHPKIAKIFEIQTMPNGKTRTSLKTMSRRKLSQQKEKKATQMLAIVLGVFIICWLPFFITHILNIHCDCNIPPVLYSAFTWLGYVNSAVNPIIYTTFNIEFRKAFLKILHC
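PathHunter beta-arrestin assay in DiscoveRx D2 cells. Compounds were added with an EC20 of dopamine (50 nM final) for 90 min at 37 deg C. Luminescence was read 1 h after detection reagent, with 57 uM dopamine as the EC100 control.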
D2 ag: human D2 receptor agonism in beta-arrestin assay. P14416. DiscoveRx PathHunter D2 beta-arrestin, luminescence, 90 min; 100% = 57 uM dopamine signal. activation, % (no concentration beside the values). actives 0.084% (n = 360,000). AID 624465; in the data active = activation above about 40%; inconclusive = about 15% to 40%; inactive = below about 15%; further: compound concentration not given in the record; the text of the record calls up to 30% inactive
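Agonist mode: compounds alone added to overnight-plated D2 PathHunter cells for 90 min at 37 C, with 57 uM final dopamine (EC100) defining full response. Beta-arrestin recruitment detected by chemiluminescent reagent, read after 1 h at ambient temperature.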
Six1-Eya2 blk: Six1/Eya2 interaction inhibition; activity change, % (no concentration beside the values); actives 0.56% (n = 360,000); AlphaScreen GST-Six1/His-Eya2 binding, biochemical; stronger effect = lower value; control for the full effect not named in the record; Q15475+O00167; AID 651725; in the data active = activity change below about -65%; inconclusive = about -30% to -65%; inactive = above about -30%; further: on the % scale 0 is the no-effect control and ±100 the full control effect; compound concentration not given in the record
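GST-Six1 + His-Eya2 (5X stock: 250/500 nM); Tris pH 8.0, 300 mM NaCl, 0.05% BSA, 0.02% Tween 20; GSH donor/Ni acceptor beads; 1 h 37 °C dark; AlphaScreen readout.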
TRPML1 ag: human mucolipin-1 channel agonism; TRPML1-expressing cells, Ca2+ dye fluorescence, FDSS; host cell line not named in the record; reference of the full effect not given here; activation, % (test concentration not listed); actives 0.12% (n = 410,000); in the data active = activation above about 50%; inconclusive = about 30% to 50%; inactive = below about 30%; further: 0% is about no effect; the text of the record puts the active cut at 80%
Target sequence (Q9GZU1 whole entry, looked up): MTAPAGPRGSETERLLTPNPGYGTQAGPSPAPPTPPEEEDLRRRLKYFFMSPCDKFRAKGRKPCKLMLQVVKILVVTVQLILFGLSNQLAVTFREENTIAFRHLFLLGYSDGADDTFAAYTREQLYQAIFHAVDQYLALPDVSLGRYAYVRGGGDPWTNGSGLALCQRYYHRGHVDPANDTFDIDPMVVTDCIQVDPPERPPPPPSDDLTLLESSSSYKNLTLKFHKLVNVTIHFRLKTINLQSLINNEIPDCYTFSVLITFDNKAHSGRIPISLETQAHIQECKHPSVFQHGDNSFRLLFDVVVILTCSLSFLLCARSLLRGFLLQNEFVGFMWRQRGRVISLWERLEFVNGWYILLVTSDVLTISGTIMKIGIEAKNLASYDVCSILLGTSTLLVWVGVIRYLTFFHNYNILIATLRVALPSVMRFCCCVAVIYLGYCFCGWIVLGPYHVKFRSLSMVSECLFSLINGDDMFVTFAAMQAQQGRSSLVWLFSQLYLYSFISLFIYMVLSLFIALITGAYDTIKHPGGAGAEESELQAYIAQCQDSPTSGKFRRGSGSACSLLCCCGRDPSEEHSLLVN
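Agonist activity was taken from a 110 s kinetic Ca2+ dye read on the FDSS after pinning compounds onto TRPML1-DL cells. The cells were seeded at 1,500/well with Tet inducer, incubated about 16 h, then dye-loaded at room temperature.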
An asterisk follows results filed as active; u = inconclusive; x = no result given; & = joins results of further samples; [ ] = another dose, or the depositor's remark.

SMILES	PINK1 modulator	CtBP-E1A blk	D2 potentiator	D2 ag	Six1-Eya2 blk	TRPML1 ag
Cc1ccc(C)c2[nH]c(=O)c(CN(Cc3ccco3)C(=S)NCC3CCCO3)cc12 (configuration not stated)	2.0%	-23.2	-14.6	0.1	-7.2	1.3
COc1cccc(NC(=S)N2CCC(C(=O)c3ccc(F)cc3)CC2)c1	1.3%	4.0	-2.7	1.5	1.4	-0.5
Cc1ccccc1-c1nc(CS(=O)CC(=O)NCCCN(C)c2ccccc2)c(C)o1 (configuration not stated)	7.3%[38.3 µM]	-12.6	-0.7	-1.7	-18.6	0.0
CN1CC=C2C(C#N)=C(N)C(C#N)(C#N)[C@H](c3cccc(Cl)c3)C2C1 (some centres not stated)	11.2µM*	-2.5	-11.9	-2.9	-14.5	0.3
CC(C)C(=O)NC(C)C(c1cccs1)N1CCN(C)CC1 (configuration not stated)	2.4%[38.3 µM]	10.8	-8.1	0.9	1.4	1.0
CC(=O)c1ccc(NC(=O)CCn2c(=O)oc3ccccc32)cc1	-5.0%	0.0	-13.2	-2.6	0.0	-0.1
O=C(NCCN1CCN(c2cccc(Cl)c2)CC1)C1CCCN(S(=O)(=O)c2cnc[nH]2)C1 (configuration not stated)	2.1%	-2.8	25.1	1.3	-3.9	-0.1
CCCCCCCCOC(=O)C1=C(C)Nc2nnnn2C1c1cccs1 (configuration not stated)	-2.1%	7.9	-4.8	-1.1	-3.2	0.5
N#Cc1ccc(C(=O)NC(=S)N2CCN(C=O)CC2)cc1	-2.2%	-11.7	-3.0	0.7	-9.1	1.6
COc1ccc(-c2c(-c3ccccc3OC)oc3ccccc23)cn1	14.5%	11.0	-3.9	-4.3	14.0	0.4
CCn1c(SCc2ccc(F)cc2)nc2ccccc2c1=O	7.0%	-22.0	-8.0	2.1	31.0	3.5
N#Cc1ccc(OCC(=O)NC2CCCCCC2)cc1	1.0%	-0.4	-3.8	0.3	2.1	-1.1
CC1CCCC(C)N1C(=O)COC(=O)c1cc([N+](=O)[O-])ccc1N1CCOCC1 (configuration not stated)	-1.0%	2.3	0.9	0.7	-6.0	1.7
COc1ccc(C(=O)NCc2nc3ccccc3[nH]2)cc1OC	4.3%	2.1	-12.1	-5.4	5.6	0.1
CC(SCC(=O)NC12CC3CC(CC(C3)C1)C2)C(=O)O (configuration not stated)	1.7%	-13.4	-11.7	0.0	16.0	-0.3
O=C(CC1SC(N2CCCC2)=NC1=O)Nc1ccc(C(=O)N2CCN(c3cccc(Cl)c3)CC2)cc1 (configuration not stated)	0.9%	-2.4	13.9	6.7	-2.0	1.7
CCCCn1nnnc1NCc1ccc(OC)c(OC)c1	-1.8%	25.2	-16.7	0.0	6.8	-0.6
Cc1cc(C)c2nc(N(CCCN(C)C)C(=O)c3ccc4c(c3)OCCO4)sc2c1	-3.3%	u	-27.9	-1.4	-19.4	25.3
O=C(NCc1ccccn1)c1ccc(Cn2cc(Br)cn2)o1	2.1%[38.3 µM]	10.5	-0.8	2.4	5.4	0.8
CCC(C)NC(=S)Nc1ccccc1 (configuration not stated)	-0.5%	3.8	-1.6	2.5	7.1	1.4
Cc1ccc(Cl)cc1N=C(N)N=C(N)N	0.9%	-7.5	-19.5	-0.3	-5.5	-0.2
C=CCOC(=O)C1=C[C@H](c2cn(C(C)=O)c3ccccc23)C[C@H](OCCCCO)O1	1.1%	-10.2	11.4	5.6	-6.2	0.9
CCC(CC)C(=O)Nc1cc(C(=O)NCCc2ccccc2)ccc1Cl	4.0%[38.3 µM]	-0.3	-20.4	-3.4	-1.9	0.4
CCN(Cc1ccc2c(c1)OCCO2)S(=O)(=O)c1ccc(NC(C)=O)cc1	-0.9%	-4.0	-2.9	-1.7	-1.8	0.6
COc1cc(=O)n2c(n1)SCCC2	3.0%	0.7	-2.0	-3.9	24.1	-0.2
Cc1ccc(/C=N/n2c(-c3ccncc3)n[nH]c2=S)cc1	-0.3%	x	-13.2	-7.7	8.3	0.9
O=C(Nc1cccc2cccnc12)c1cccc(N2C(=O)CCC2=O)c1	-1.4%	-0.6	16.6	-2.9	-1.0	-0.5
COC(=O)C(NC(C)=O)(Nc1nc(C)cs1)C(F)(F)F (configuration not stated)	0.0%	-0.2	-10.8	-1.3	-0.1	1.3
O=C(O)Cn1cc2c(n1)CCCC2	-2.5%	8.1	-10.5	2.0	1.4	0.9
CN(Cc1ccccc1)C(=O)CN1C(=O)COc2ccc(S(=O)(=O)N3CCCC3)cc21	0.0%	-1.5	-6.1	-2.0	-1.3	-0.7
N/C(=N\OS(=O)(=O)c1ccccc1)c1ccncc1	2.5%	5.7	95.6*	u	1.6	1.1
CN(CC(=O)Nc1cccc(F)c1)C(=O)c1cccnc1Sc1ccc(Cl)cc1	3.7%	6.7	-17.2	-3.7	-1.7	-0.4
Fc1ccc(Nc2nnc(-c3ccncc3)s2)cc1Cl	3.9%	-18.7	-9.5	1.3	9.3	-0.3
COc1ccccc1Nc1nc(N)nc(CN2CC(C)CC(C)C2)n1 (configuration not stated)	0.9%	9.7	-28.9	-5.8	8.5	-1.0
CCOc1ccc(N(Cc2ccc(OC)cc2)C(=O)c2ccco2)cc1	-0.3%	13.1	-8.0	-1.0	-6.4	4.6
COC(=O)[C@H]1[C@@H](C)N(Cc2ccccc2)C(=O)N[C@H]1c1cccc(C(F)(F)F)c1	0.8%	0.3	-6.2	-2.6	4.0	-0.3
Cc1cc(C(=O)NC(C)C)on1	3.6%[38.3 µM]	1.7	-3.3	-1.6	2.9	1.8
Cc1cccc(-c2nc(CS(=O)CC(=O)NC3CCCC(C)C3C)c(C)o2)c1 (configuration not stated)	0.1%	-4.3	-4.2	-2.2	-3.1	0.7
CS(=O)(=O)N(CC(=O)Nc1ccccc1Sc1ccccc1)C1CCCCC1	-2.7%[38.3 µM]	-7.5	-0.9	-4.3	-14.9	5.3
CCOc1ccc(S(=O)(=O)Nc2cccc(C(=O)NCCCN3CCOCC3)c2)cc1	2.7%	-2.8	-3.9	3.4	1.6	4.2
O=C(CN1C(=O)CCSc2ccc(S(=O)(=O)N3CCCC3)cc21)Nc1ccccc1	10.0%&0.5%	-14.5	-3.0	1.6	0.5	-0.3&-1.0
CCOc1ccc(-c2c(C(=O)N/N=C(\C)c3ccccc3OC)nnn2-c2nonc2N)cc1	0.5%	0.6	-2.8	1.7	0.2	1.1
COc1ccc(Cl)cc1-c1nc(-c2ccc(Br)o2)no1	0.0%	2.5	-7.7	-2.5	3.0	-0.3
CC(C)OCCCNC(=O)c1ccncc1	10.6%[38.3 µM]	7.3	-3.6	2.5	2.1	0.9
COc1cc(C2C(C(=O)c3cccs3)=C(O)C(=O)N2CCN2CCOCC2)cc(OC)c1OC (configuration not stated)	1.0%	4.1	-22.5	1.8	-9.6	-0.9
O=C(c1cccs1)N1CCN=C1SCc1ccccc1	1.3%	14.1	-8.8	-3.4	3.1	-0.1
CC(C)=CCC[C@H](C)C[C@@H]1Cc2[nH][nH]c(=O)c2[C@@H](c2ccc(F)cc2)O1	u	-2.1	x	x	-7.2	-0.8
Cc1nc(N2CCCC2)c2nnn(Cc3ccccc3Cl)c2n1	u	42.6	-7.4	-1.5	19.7	1.4
Cc1ccc(NC(=O)C2C3/C=C\CCCCC32)cc1 (configuration not stated)	12.8%	-2.7	3.7	-1.4	-6.7	-0.7
O=C(CCCc1ccccc1)NCc1cccnc1	-0.2%	-2.2	15.4	0.6	2.2	1.4
CC(=O)N(c1cccc(C)c1)S(=O)(=O)c1ccc(Cl)cc1	1.2%	10.7	-7.4	-0.4	4.3	2.6
O=C(O/N=C(/c1ccccc1)c1ccncc1)c1cccc(F)c1	3.0%	0.2	-6.5	1.5	3.9	-0.4
O=C1Cc2cc(S(=O)(=O)Nc3cccc(F)c3)ccc2N1	0.4%	11.3	-0.8	4.0	4.0	0.0
CS(=O)(=O)c1ccc2nc(NC(=O)c3ccccc3Br)sc2c1	0.0%	-6.8	-15.0	-4.7	4.1	0.1
COC1CCCCC1Nc1cccc(SC)c1 (configuration not stated)	6.0%[38.3 µM]	11.0	5.2	-2.3	-9.5	1.2
Nc1c(N(Cc2ccccc2)C(=O)COc2ccc(F)cc2Cl)c(=O)[nH]c(=O)n1Cc1ccccc1	8.5%	13.2	-6.0	-2.5	3.6	-0.4
Cc1c(C(c2ccc(Br)cc2)c2c(C)n(C)n(-c3ccccc3)c2=O)c(=O)n(-c2ccccc2)n1C	1.3%	6.4	-13.8	-3.4	-1.2	0.2
Cc1c(NC(=O)/C=C/c2ccc(S(=O)(=O)N3CCOCC3)cc2)c(=O)n(-c2ccccc2)n1C	-0.3%	6.1	0.8	1.2	1.5	0.1
CCOC(=O)C1CCN(S(=O)(=O)c2ccc(-c3cc(C(F)(F)F)n(C)n3)s2)CC1	-0.3%	x	2.5	-10.0	-6.1	0.1
COc1cccc(C2C(C#N)=C(N)N(N(C)C)C3=C2C(=O)CC(C)(C)C3)c1 (configuration not stated)	0.9%	0.1	3.4	1.8	5.4	1.3

Only D2 potentiator, Six1-Eya2 blk and PINK1 modulator, for 2 of the compounds above:
SMILES | D2 potentiator | Six1-Eya2 blk | PINK1 modulator
O=C(CCCc1ccccc1)NCc1cccnc1 | 15.4 | 2.2 | -0.2%
CS(=O)(=O)c1ccc2nc(NC(=O)c3ccccc3Br)sc2c1 | -15.0 | 4.1 | 0.0%

Going on with the list:
SMILES	PINK1 modulator	CtBP-E1A blk	D2 potentiator	D2 ag	Six1-Eya2 blk	TRPML1 ag
CC(=O)N1c2ccccc2S(=O)(=O)c2c1ccc1ccccc21	-0.4%	1.2	-8.0	-1.1	6.7	1.6
O=C(NCC1CCCO1)/C(=C\c1ccccc1)NC(=O)c1ccccc1 (configuration not stated)	-0.2%	5.1	-5.2	-5.9	5.7	-0.1
O=C(c1cccc(OC2CCN(Cc3ccc(F)cc3)CC2)c1)N1CCCC1	-0.8%	0.1	-28.0	-1.7	-3.2	0.5
CN(C)/C=N/c1nc2nccc(-c3cccnc3)n2n1	0.2%	-7.8	-12.0	3.6	-2.1	0.7
O=S(=O)(NCc1ccccn1)c1ccc(Br)s1	7.5%[38.3 µM]	-2.0	0.9	2.1	-0.8	-1.0
O=C(COC(=O)CCc1ccc(S(=O)(=O)N2CCCCC2)cc1)Nc1ccc2c(c1)OCO2	-0.3%	-6.4	14.1	-1.6	-11.6	-0.5
CCOC(=O)COc1cccc2c(=O)n(CC(=O)N3CCc4ccccc43)ccc12	7.1%	1.7	0.0	-2.3	-1.0	-0.3
CCN(CC(=O)Nc1ccc2c(c1)OCCO2)C(=O)/C=C/c1ccc(F)cc1	1.0%	-6.8	-12.0	-3.2	-0.6	-0.6
COCCN(CCOC)C(=O)Nc1ccc(Cl)cc1	1.0%	-10.2	2.2	-5.0	9.4	-1.0

Retrieved one by one from the entries so far:
SMILES	PINK1 modulator	CtBP-E1A blk	D2 potentiator	D2 ag	Six1-Eya2 blk	TRPML1 ag
CC(=O)N1c2ccccc2S(=O)(=O)c2c1ccc1ccccc21	-0.4%	1.2	-8.0	-1.1	6.7	1.6
O=S(=O)(NCc1ccccn1)c1ccc(Br)s1	7.5%[38.3 µM]	-2.0	0.9	2.1	-0.8	-1.0
CN(C)/C=N/c1nc2nccc(-c3cccnc3)n2n1	0.2%	-7.8	-12.0	3.6	-2.1	0.7
